# Menin-MLL FL inh = menin-MLL binding inhibition, fluorescein peptide | FP activity change, % at 61.4 µM | 290,000 tested, under 10 active | Fluorescence polarization, fluorescein-MLL peptide displacement from menin; inconclusive = falling polarisation curve, or a change in total fluorescence; inactive = total fluorescence flat and polarisation flat or rising; no compound was filed as active; the % refers to the polarisation; negative = inhibition;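 note: % of control where 0% means no effect; inhibitors lower the polarisation; unlabelled MLL peptide was the positive control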
# D2 PAM = human D2 receptor positive allosteric modulation; DiscoveRx D2 beta-arrestin cells, luminescence, 90 min; 100% = 57 uM dopamine signal; P14416; potentiation, % (no concentration beside the values); actives 0.23% (n = 360,000); AID 624464; active = potentiation of 50% or more; inconclusive = 30% to 50%; inactive = 30% or less;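 note: compound concentration not given in the record; tested on top of an EC20 dose of dopamine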
# Target sequence (P14416 whole entry, looked up): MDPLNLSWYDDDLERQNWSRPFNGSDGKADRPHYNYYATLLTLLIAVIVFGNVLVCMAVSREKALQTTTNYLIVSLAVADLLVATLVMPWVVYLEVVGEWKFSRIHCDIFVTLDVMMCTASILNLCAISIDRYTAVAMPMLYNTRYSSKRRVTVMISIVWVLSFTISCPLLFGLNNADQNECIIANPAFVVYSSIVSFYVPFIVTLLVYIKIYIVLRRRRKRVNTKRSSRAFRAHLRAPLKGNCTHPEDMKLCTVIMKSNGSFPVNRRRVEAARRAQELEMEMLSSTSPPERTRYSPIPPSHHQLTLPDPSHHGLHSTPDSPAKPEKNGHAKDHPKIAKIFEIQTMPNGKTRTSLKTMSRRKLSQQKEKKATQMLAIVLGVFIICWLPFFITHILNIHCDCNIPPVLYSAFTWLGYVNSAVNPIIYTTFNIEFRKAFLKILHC
#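 PathHunter D2 cells, attached overnight at 37 deg C, received compound in DMSO plus dopamine at EC20 (50 nM final) for 90 min at 37 deg C. Beta-arrestin recruitment was read as luminescence after 1 h with detection reagent at ambient temperature.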
# gsp antag = antagonizes gsp, the McCune-Albright syndrome mutation; AID 624288; Potency, µM (top dose mostly 76.9 µM), inactives show at the top dose activity change, negative = inhibition, most hits filed as inhibitors; gsp-mutant cells, cAMP HTRF, 30 min; control for the full effect not named in the record; actives 0.4% (n = 340,000); active = falling curve of any shape with a large fitted effect; inconclusive = falling curve, mostly with a smaller effect; inactive = flat or rising curve; cell line not stated here;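 note: intracellular cAMP measured with PDE inhibitor Ro 20-1724 present during compound exposure; potency is the fitted concentration of half-maximal effect; % is set by controls: 0 for no effect and ±100 for the full control effect; nearly all actives have a fitted effect of over 65% in size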
#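 Cells in G418 medium, seeded 16-24 h, 37C; buffer exchange to DPBS + 1 mM CaCl2, 0.5 mM MgCl2, 0.05% BSA; cpds in DMSO + […] (300 uM stock), 30 min 37C; HTRF cAMP detection.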
# Sfp inh = blocks B. subtilis Sfp PPTase activity; Q9F4F7; Biochemical Sfp PPTase activity, qHTS; Potency, µM, without a hit: max response, negative = inhibition, hits mostly inhibitors; actives 3.5% (n = 310,000); AID 1490; active = well fitted inhibition curve with a large enough effect; inconclusive = small, poorly fitted or top-dose-only effect, or another doubt; inactive = no such curve, though single readings can be large or run the other way;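 note: the enzyme is Sfp with the accession as filed and its product quenches rhodamine fluorescence; potency is the fitted concentration of half-maximal effect; 0% = enzyme reaction without inhibitor and -100% = no enzyme wells; top concentration of the series not given in the record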
#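 Step 1, compound plus 15 nM Sfp-PPTase, 15 min, room temperature. Step 2, add rhodamine-CoA (5 uM) and BHQ-2-YbbR (12.5 uM). Step 3, read 525/598 nm fluorescence at 0 and 30 min.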
# gsp agonist = gsp mutant agonism; gsp mutant cells, cAMP HTRF, 30 min; control for the full effect not named in the record; Potency, µM (titrated, usually from 76.9 µM), for the others: top-dose activation (cAMP increase), usual class: activators; actives 0.13% (n = 340,000); AID 624287; active = well fitted activation curve with a large enough effect; inconclusive = small, poorly fitted or top-dose-only effect, or another doubt; inactive = no such curve, though single readings can be large or run the other way; cell line not stated here;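 note: phosphodiesterase inhibitor Ro 20-1724 added with compounds to block cAMP breakdown; potency is the fitted concentration of half-maximal effect; nearly all actives have a fitted effect of over 60% in size; about a fifth of the inactives were tested at one dose only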
#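 Cells stably selected in G418 were plated at 2000/well, grown 16-24 hr, then given compounds in DMSO with the PDE inhibitor […] (300 uM solution added) for 30 min at 37C; cAMP was read by HTRF.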
# TRPV1 potentiator = enhances activation of the human vanilloid receptor TRPV1 | actives 0.02% (n = 320,000) | TRPV1-expressing cells, Fluo-8 calcium influx, capsaicin EC20 potentiation; host cell line not named in the record; control for the full effect not named in the record | Q8NER1 | AID 540277 | potentiation, % at 8.33 µM; active means potentiation above 80%; inconclusive means 30% to 80%; inactive means below 30%; note: 0% is about no effect
#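 Fluo-8 calcium influx in TRPV1-expressing cells, kinetic read (ex 480/em 520 nm). Compound added and read 3 min for agonist activity, followed by capsaicin at EC20 final and 2 min further read for enhancement.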
# ClpP mod = qHTS Assay for Activators of ClpP. ATP-dependent Clp protease proteolytic subunit (Bacillus subtilis (strain 168)), P80244. purified B. subtilis ClpP, FRET peptide cleavage, 20 min. Potency, µM (top dose mostly 57.5 µM), without a hit: top-dose activity change, negative = active. actives 1.9% (n = 340,000). AID 651965, 2013; active = well fitted falling curve with a large enough effect; inconclusive = small, poorly fitted or top-dose-only effect; inactive = no such curve, though single readings can be large or run the other way; note: potency is the fitted concentration of half-maximal effect; the source files actives as falling curves though it sought activators and does not explain the sign; nearly all actives have a fitted effect of over 65% in size; many hits overshoot -100%
# Target sequence (P80244 whole entry, looked up): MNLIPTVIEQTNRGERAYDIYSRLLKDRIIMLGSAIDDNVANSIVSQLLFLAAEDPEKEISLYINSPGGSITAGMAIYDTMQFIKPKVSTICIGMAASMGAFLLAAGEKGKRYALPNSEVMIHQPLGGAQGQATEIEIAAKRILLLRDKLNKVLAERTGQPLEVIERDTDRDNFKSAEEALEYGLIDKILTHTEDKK
#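 FRET quenching reversal measured ClpP activation: 10 microg/mL B. subtilis ClpP at pH 8 with the FRET-FV decapeptide, read at 430 nm after 320 nm excitation. The 20-min minus 0-min signal was scaled between DMSO/no-enzyme wells and ADEP (5.8 microM final).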
# * marks the source's active call; other numbers are inactive results; ? = inconclusive; . = no result given; [ ] = remark or other dose.
SMILES,Menin-MLL FL inh,D2 PAM,gsp antag,Sfp inh,gsp agonist,TRPV1 potentiator,ClpP mod
Cc1ccc(OCCOCCN2CCN(C)CC2)c([N+](=O)[O-])c1,1.7,-13.7,-5.0%,79.4µM*,17.9%,-4.4,-4.0%
CCN(CC)S(=O)(=O)c1ccc(N2CC(C(=O)NCc3ccc4c(c3)OCO4)CC2=O)cc1 (stereo not given),.,-4.5,-12.2%,.,1.8%,-21.5,-0.2%
CC1CCN(C(=O)Cn2cnc3c2c(=O)n(C)c(=O)n3C)c2ccccc2S1 (stereo not given),6.4,-4.1,-5.1%,16.9%,26.4%[15.4 µM],-4.8,.
CSc1ccc(CN(C)C(=O)c2cc3ccccc3o2)cc1,1.4,-4.6,-20.8%,1.5%,-7.5%[15.4 µM],4.5,.
Cc1ccc(Nc2ncnc3ccccc23)cc1,-0.9,-10.1,-9.6%,3.1%,4.2%[15.4 µM],-11.0,.
C=CCNc1nc(C(=O)OCC(=O)c2ccccc2)cs1,.,-8.7,1.0%,8.2%,?,5.6,-4.2%
CC1(C)CC(=O)c2cc(OCC(=O)NCCCN3CCN(c4ccc(F)cc4)CC3)ccc2O1,2.3,-9.2,-7.2%,2.2%,-63.6%[inhibitor],13.9,?
CCn1ncc(C(=O)Nc2cc(C)on2)c1C,.,-17.1,-0.5%,26.9%,18.1%,18.8,0.6%
NNC(=O)Cn1cnc2ccccc21,1.3,-5.0,9.7%,12.4%,14.4%,4.7,.
O=C(NC1CCCC1)c1sc(=S)n2c1[nH]c(=O)c1ccccc12,-2.0,-13.9,?,-24.0%,-1.4%,-1.6,-3.8%
Cc1ccc(CNS(=O)(=O)c2ccc3c(c2)CCN3C(=O)CCCC(=O)O)cc1,0.3,8.2,-0.2%,-7.1%,14.2%[15.4 µM],-7.7,.
O=C(NNC(=O)c1ccc2ccccc2c1O)c1cccs1,3.8,-0.7,4.5%,19.3%,8.6%,-8.6,.
COc1cccc(NC(=O)CN(C)C(=O)[C@@H]2CCCN2C(=O)c2cccs2)c1,.,4.4,3.4%,.,0.3%,.,0.1%
NC(=O)c1cc([N+](=O)[O-])ccc1NCc1cnccn1,.,-46.8,1.3%,.,.,15.7,-3.4%
C=CCNc1sc(C(=O)C2CC2)c(N)c1C#N,5.0,-2.8,3.5%,-6.1%,-34.6%[inhibitor],-3.6,-2.6%
CCOC(=O)c1cnc2c(C(=O)OC)cccc2c1NCc1ccco1,4.0,-4.7,-8.9%,2.6%,-1.2%,-7.0,?
O=C(O)c1cccc(-n2c(/C=C/c3ccc([N+](=O)[O-])cc3)nc3ccccc3c2=O)c1,-2.0,-0.4,-27.3%,8.3%,?,20.3,-0.6%
Cc1ccc(Nc2nc(N)nc(CN3CCCCCC3)n2)c(C)c1,0.5,-44.2,-1.6%,0.2%,-20.4%,-1.9,?
O=c1/c(=C\c2ccc(O)cc2)sc2n1C(c1ccccc1)C(c1ccccc1)=NN=2 (stereo not given),?,-12.0,6.7%,50.1µM*,?,10.1,-2.2%
COc1ccc(Nc2cc(=O)oc3ccccc23)cc1,-0.2,-14.6,5.0%,10.5%,8.9%,-11.6,?
CCOC(=O)c1ccc(-n2c(N)c(C(=O)NCc3ccco3)sc2=S)cc1,-0.2,-24.3,-12.7%,35.5µM*,?,-5.2,0.7%
CC(NCC(O)c1ccc([N+](=O)[O-])cc1)C12CC3CC(CC(C3)C1)C2 (stereo not given),0.1,-7.3,4.7%,-6.0%,-9.2%[15.4 µM],.,-1.2%
CCCc1c(C(=O)NNc2cccc(Cl)c2)cnn1-c1ccccc1,0.7,-7.4,-5.2%,4.4%,-1.7%,5.6,-1.5%
Nc1ccc(Nc2nc3ccccc3[nH]2)cc1,1.1,-1.6,-24.8%,-3.3%,-65.8%[inhibitor],21.7,.
CCCC1=C(C(=O)OCC)C(c2cc(Cl)cc(OC)c2OCC(=O)OCC)NC(=O)N1 (stereo not given),0.2,14.6,-13.7%,-4.3%,-4.1%,-3.5,0.7%

# The listing continues.
SMILES,Menin-MLL FL inh,D2 PAM,gsp antag,Sfp inh,gsp agonist,TRPV1 potentiator,ClpP mod
Cc1nn(-c2ccc(N3CCOCC3)nn2)c(C)c1CCC(=O)N1CCN(C)CC1,5.7,-3.4,-7.5%,6.5%,7.8%,3.5,-0.8%
Cc1cc(C)n(-c2nc3c(c(=O)[nH]c(=O)n3C)n2CC(C)C)n1,-0.5,-6.5,-0.6%,-1.8%,-0.9%,-18.0,-7.7%
CCN(CCn1cccn1)C(=O)C1CCC(=O)N(CCN2CCOCC2)C1 (stereo not given),.,-12.9,4.2%,10.5%,4.1%,-18.0,-3.9%
COc1ccccc1/C=C1/C(=O)ON=C1C,-6.5,-5.1,6.4%,-28.0%,1.4%,2.4,-0.7%
Cc1ccccc1OCCOC(=O)c1nc2nccc(C)n2n1,1.5,-0.4,-0.4%,6.8%,4.8%[15.4 µM],4.5,.
Cc1ccccc1/C=c1\s/c(=C\C(=O)C(C)(C)C)[nH]c1=O,-0.4,-6.8,-30.9%,-7.7%,-0.1%,9.0,1.0%
O=C(CN1C(=O)/C(=C/c2ccccc2F)Sc2ccccc21)NCC1CCCO1 (stereo not given),.,-12.7,-28.6%,-20.4%,1.5%,-18.8,-0.7%
CC(=O)Nc1ccc(-n2nnnc2SCC(=O)Nc2cccc(NC(=O)c3ccco3)c2)cc1,-8.5,-6.3,6.3%,50.1µM*,?,-3.4,-19.5%
COc1ccc(S(=O)(=O)N2CCCC(C(=O)NCc3ccco3)C2)cc1OC (stereo not given),0.6,0.3,-0.2%,-3.0%,0.5%,?,.
COc1ccccc1N1CCN(CCCN2CC(=O)N3CCCCC3C2=O)CC1 (stereo not given),.,-21.2,6.0%,.,19.9%,.,.
O=C(NN1CC(C(=O)OCc2ccccc2F)CC1=O)c1ccccc1 (stereo not given),.,-8.9,-8.2%,-4.8%,-20.3%,-14.8,-1.6%
CCC1Sc2ccc(S(=O)(=O)Nc3ccc(OC)cc3)cc2NC1=O (stereo not given),.,-2.5,-5.9%,-13.7%,2.7%,2.4,-1.2%
CN(c1ccc(C(=O)Nc2ccccc2Sc2ccccc2)cc1)S(C)(=O)=O,7.4,-39.8,-21.0%,5.7%,-24.8%,1.5,-2.1%
C=CCOc1ccn(C)c(=O)n1,5.8,-5.9,2.2%,14.3%,25.3%,-3.4,2.6%
OCCNc1nc(Nc2ccc(Br)cc2)nc2ccccc12,-2.3,-14.7,-10.6%,39.8µM*,-13.5%[15.4 µM],?,.
CCOC(=O)C1(Cc2ccccc2C)CCCN(S(=O)(=O)CC)C1 (stereo not given),-0.8,-11.5,-3.1%,9.3%,19.9%,18.9,0.2%
CC(=O)NC(=S)Nc1sc2c(c1C#N)CCCCC2,-1.5,-5.9,?,50.1µM*,14.5%[15.4 µM],-3.7,0.1%
O=[N+]([O-])c1ccccc1/C=C/CN1CCSCC1,0.9,-65.4,7.1%,-4.2%,1.8%,2.9,-2.9%
C=C(C)COc1ccc(-c2nc(N)ncc2-c2ccc(OC)cc2)c(O)c1,-1.0,.,.,2.3%,.,0.9,.
COc1ccc(C2NC(c3ccc(OC)cc3)C(C)C(=O)C2C)cc1 (stereo not given),4.1,-4.0,-7.2%,-10.4%,7.2%,5.2,.
O=C(Nc1ccccc1)N1CCN(c2ccccn2)CC1,-0.4,3.1,15.6%,12.0%,13.8%,-28.7,?
COC(=O)C1=NN(c2ccc(C)cc2)C2C(=O)N(c3ccccc3OC)C(=O)C12 (stereo not given),2.3,-8.1,-0.7%,15.2%,-2.7%[15.4 µM],3.4,0.5%
COc1cc(-c2c(NC(=O)c3ccco3)oc3ccccc3c2=O)cc(OC)c1OC,.,3.0,-4.9%,4.8%,-5.5%,1.4,-1.9%
COc1ccc(S(=O)(=O)N2CCC(C(=O)N[C@H](C(=O)N3CCCCCC3)C(C)C)CC2)cc1,.,-7.6,3.9%,17.3%,25.1%,-9.7,2.1%
Cc1cccc(C(=O)NC2CCN(C(=O)NCc3ccccc3)CC2)c1,6.2,-6.5,-1.0%,2.2%,-31.3%[inhibitor],7.9,.

# Profiles, looked up by structure.
# CCn1ncc(C(=O)Nc2cc(C)on2)c1C across the screens: Menin-MLL FL inh: .; D2 PAM: -17.1; gsp antag: -0.5%; Sfp inh: 26.9%; gsp agonist: 18.1%; TRPV1 potentiator: 18.8; ClpP mod: 0.6%
# C=CCOc1ccn(C)c(=O)n1 across the screens: Menin-MLL FL inh: 5.8; D2 PAM: -5.9; gsp antag: 2.2%; Sfp inh: 14.3%; gsp agonist: 25.3%; TRPV1 potentiator: -3.4; ClpP mod: 2.6%

# Additional structures:
SMILES,Menin-MLL FL inh,D2 PAM,gsp antag,Sfp inh,gsp agonist,TRPV1 potentiator,ClpP mod
O=C(COC(=O)c1c(Cl)ccc(Cl)c1Cl)NC1CCS(=O)(=O)C1 (stereo not given),-0.2,0.4,-0.1%,13.1%,-11.1%[15.4 µM],-5.1,.
O=C(/C=C/c1ccc(Cl)c(Cl)c1)NCc1ccco1,0.9,-19.0,-4.0%,-21.7%,2.4%,-17.8,-2.2%
COC(=O)/C(C#N)=C/N(C)C,-0.4,0.7,9.3%,15.0%,0.6%,1.0,.
CC1CCN(C(=O)CCC(=O)Nc2nnc(C3CCCCC3)s2)CC1,.,-13.0,3.3%,-2.3%,-0.1%,-7.8,-0.8%
CC1(c2ccc(Cl)cc2Cl)NC(=O)N(CC(=O)Nc2cccnc2Cl)C1=O (stereo not given),.,-2.0,11.1%,.,-8.8%,9.1,0.5%
O=C(O)c1cncc(C#Cc2ccccc2)c1,-1.0,1.8,-6.5%,15.1%,18.8%,9.2,.
COc1ccc(C(=O)/C=C(\C)Nc2ccc(NC(C)=O)cc2)cc1,-0.4,-12.2,-6.7%,-6.4%,-22.5%,24.3,?
O=C(O)c1cc([N+](=O)[O-])ccc1N1CCCCC1,3.5,-12.8,4.8%,13.4%,?,10.1,-3.5%
CN(C)CCC(=O)c1cccc(Br)c1,2.3,-17.5,15.4%,?,21.1%,6.7,-2.2%

# Screens as filed in PubChem BioAssay.
